Mtb MenB inh: blocks the Mycobacterium tuberculosis MenB enzyme | P9WNP5 | MenB enzyme assay, absorbance read-out; some hits fall short of the stated cut | inhibition, %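 (about 12 µg/mL by stock and volumes)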 | 100,000 tested, 0.43% active;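 active means mean of two replicates above 30%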;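 further: 0% = no compound and 100% = wells with inactive enzyme; the first replicate is given; strong numbers were not always called active; inactives centre near -10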
Target sequence (P9WNP5 whole entry, looked up): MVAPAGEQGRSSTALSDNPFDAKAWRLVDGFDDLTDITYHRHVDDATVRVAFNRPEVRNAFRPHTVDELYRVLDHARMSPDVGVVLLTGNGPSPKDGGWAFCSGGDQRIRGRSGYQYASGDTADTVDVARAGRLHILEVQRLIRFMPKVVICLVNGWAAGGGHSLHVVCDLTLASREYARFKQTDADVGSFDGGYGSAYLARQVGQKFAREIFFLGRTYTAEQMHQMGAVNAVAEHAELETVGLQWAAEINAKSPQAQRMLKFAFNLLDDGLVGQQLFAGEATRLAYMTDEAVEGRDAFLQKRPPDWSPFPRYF
PV pol inh: poliovirus RNA polymerase inhibition | poliovirus polymerase elongation, fluorescence polarization; stronger effect = lower value | 150,000 tested, 0.66% active | P03300 | % elongation, % (compound at 16.7 µg/mL); in the data active means % elongation below about 90%; further: some results filed as inactive read as strong as hits
MbtI inh: inhibitors of Mycobacterium tuberculosis siderophore enzyme MbtI | P9WFX0 | purified MbtI enzyme, fluorescence intensity read-out | inhibition, %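 (about 17 µg/mL by stock and volumes)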 | 100,000 tested, 0.89% active;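 active means above 50% in both replicates, above 80% if mildly self-fluorescent; inactive means the rest, strongly fluorescent compounds included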;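 further: 0% = mean of negative and 100% = mean of positive controls; one replicate is shown; some compounds called inactive have numbers as strong as hits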
Target sequence (P9WFX0 whole entry, looked up): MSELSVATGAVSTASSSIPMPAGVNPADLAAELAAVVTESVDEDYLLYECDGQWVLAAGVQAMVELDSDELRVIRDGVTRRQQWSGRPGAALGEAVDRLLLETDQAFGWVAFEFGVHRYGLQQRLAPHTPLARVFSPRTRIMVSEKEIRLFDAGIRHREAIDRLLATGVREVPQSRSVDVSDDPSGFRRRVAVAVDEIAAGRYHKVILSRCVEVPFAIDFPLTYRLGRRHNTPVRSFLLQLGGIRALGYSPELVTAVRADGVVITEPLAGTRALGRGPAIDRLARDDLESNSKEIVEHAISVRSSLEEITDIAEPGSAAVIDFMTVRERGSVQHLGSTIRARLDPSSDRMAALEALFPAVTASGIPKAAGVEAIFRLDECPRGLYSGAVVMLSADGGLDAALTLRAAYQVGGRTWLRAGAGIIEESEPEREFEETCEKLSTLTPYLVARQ
PV pol inh intensity: second read-out of PV pol inh, no call of its own (marks repeat the call); % elongation; measured here: total intensity read-out; formula for this scale not given here;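 total fluorescence in place of polarization; lower means less elongation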
* hit, by the source's call; / = no result given; & = joins results of further samples.

SMILES	Mtb MenB inh	PV pol inh	PV pol inh intensity	MbtI inh
Cc1ccc(/C=C/C(=O)Nc2sc3c(c2C#N)CCCC3)cc1	-4	100	108	/
O=C(CC(NCc1ccco1)C(=O)O)Nc1cccc(Cl)c1 (configuration not stated)	0	104	104	-11
C=CCNC(=O)c1ccc2c(c1)C1C3CCC(C3)C1C(c1ccccc1)N2 (configuration not stated)	-9	103	102	-157
Cc1nn(Cc2ccccc2Cl)c(C)c1C(=O)OCC(=O)Nc1sccc1C(N)=O	-25	97	94	0
O=c1c2ccccc2nc(SC(F)F)n1-c1ccccc1	13	100	99	5
COc1cccc(CNC(=O)Cc2cccc(OC)c2)c1	-13	106	107	-4
CCc1cc2c(NCC3CCCO3)nc(C)nc2s1 (configuration not stated)	2	96	101	/
CCCN1CCN(C(=O)c2c(C)nn(Cc3ccc(C)cc3)c2Cl)CC1	-31	103	108	-6
C=CCN1C(=O)N(c2ccccc2)C(=O)C1CC(=O)Nc1ccc(CC)cc1 (configuration not stated)	1	102	102	-22
COC(=O)c1c(-c2c(Cl)cccc2Cl)noc1C(=O)N/N=C/c1ccccn1	-71	103	103	-3
C=CCn1c(SCC2CNC(c3ccc(N(C)C)cc3)O2)nnc1C1CCCCC1 (configuration not stated)	-14	115	123	14
COc1cc(N=CC2=C(O)c3ccccc3C2=O)cc(OC)c1	-9	102	109	-14
C=CCc1cccc(C=NC(Cc2cnc[nH]2)C(=O)O)c1O (configuration not stated)	-29	106	102	/
Cc1[nH]c2ccccc2c(=O)c1Br	-6	102	101	5
COc1cc(C=NCCN=Cc2ccc(O)c(OC)c2)ccc1O	-20	103	103	12
C1CNCCN1	-1	98	98	-25
COc1ccc(CSC2=NCN(C3CC(C)CC(C)(C)C3)CN2)cc1 (configuration not stated)	-5	106	115	-13
CCOC(=O)C1=C(C)NC(=O)NC1C1CC=CCC1 (configuration not stated)	-20	104	103	4
COC(=O)c1ccc(CC(C#N)(Cc2ccc(C(=O)OC)o2)C(=O)Nc2ccc(OC)c(OC)c2)o1	-12	102	105	-5
Cc1ccc(/C=C/C(=O)OCC(=O)c2cc(C)n(CC3COc4ccccc4O3)c2C)o1 (configuration not stated)	-19	/	/	15
CC(/C=C/c1ccco1)=N\NC(=O)Cc1cccc2ccccc12	-12	103	108	28
CCc1ccc(N2C(=O)N(CC(=O)N3CCCCCC3)c3ccccc3S2(=O)=O)cc1	-2	100	102	-24
CC1CCN(C(=O)COC(=O)c2ccccc2C(=O)c2ccccc2)CC1	/	105	105	-9
CCc1cccc2c(C(=O)COC(=O)c3c(C)noc3C)c[nH]c12	-4	105	113	-26
O=CN1CCN(S(=O)(=O)c2ccc(F)c(F)c2)CC1	-10	105	110	-1
O=C(O)CNS(=O)(=O)c1cccs1	-8	103	100	0
CCN(CC)c1nc(=S)nc(NC(C)(C)C)[nH]1	-31	100	101	12
O=C1c2ccccc2C(=O)C1C1=Nc2ccccc2NC(c2ccccc2)C1 (configuration not stated)	-10	104	107	/
O=C(O)c1ccc(-n2cnc3ccccc32)cc1	-23	100	102	-1
Cc1cccc(Nc2nc3ccccc3nc2-n2nc(C)cc2C)c1	-16	103	104	1
CCOC(=O)/C=C1\SCC(=O)N1Cc1nc(N)nc(Nc2ccccc2C)n1	9	107	115	3
Cc1ccc(C=Nc2ccccc2Br)o1	/	103	103	17
COCn1c(=O)[nH]c2ccccc21	-32	102	101	-10
CC(C)/C=C1\CC/C(=C\c2ccccn2)C1=O	-1	98	102	52
COc1cccc(C2CC(=O)NC(NC(=O)c3cccc(Cl)c3)=N2)c1OC (configuration not stated)	11	100	104	-6
Cc1ccc(/C=C2/Sc3ccc(C(=O)NCCN4CCOCC4)cc3NC2=O)cc1	-9	100	102	3
CCCn1c(C)cc(C(=O)CN2C(=O)NC3(CCCCCC3)C2=O)c1C	-20	121	128	-7
COC(=O)c1ccccc1Oc1ccccc1OC	-92	100	103	-7
CC(C)NC(=S)N1CCN(c2ccc(N3CCOCC3)nn2)CC1	-5	102	103	-21
COCC(C)NCc1cccc(Oc2ccccc2)c1 (configuration not stated)	5	100	102	-8
CCN(c1cccc(C)c1)S(=O)(=O)c1ccc2[nH]cc(C(=O)NCCc3ccccc3)c(=O)c2c1	-1	101	105	-30
CC(CCc1ccccc1)NC(=O)CN1CCN(S(=O)(=O)c2cccs2)CC1 (configuration not stated)	-34	108	111	5
COC(=O)c1cccc(OCC(O)CNC2CCN(Cc3ccccc3)CC2)c1 (configuration not stated)	-26	98	102	13
COc1ccc(C(=O)ON=C2CSC(C)SC2)cc1 (configuration not stated)	-4	102	102	7
O=C(NC(=O)c1ccccc1)Nc1ccccc1	-7	103	106	1
CSc1nnc(C(C)(C)C)c(=O)n1/N=C/c1c(O)ccc2ccccc12	-9	101	106	1
COc1c(Cl)cc(C(=O)N2N=N2)cc1Cl	-26	99	103	-1
COc1ccccc1C(=O)N/C(=C\c1ccccc1)C(=O)O	0	97	94	1
CC(C)COC(=O)/C=C/c1ccccc1	-28	98	99	-4
Nc1nc(CCOc2ccc(F)cc2)cs1	-13	106	106	-3

Additional structures follow.
SMILES	Mtb MenB inh	PV pol inh	PV pol inh intensity	MbtI inh
C=CCNc1nnc(SCC(=O)N2CCC(C(N)=O)CC2)s1	-17	100	99	-4
O=C(NCC1CCCO1)C1c2ccccc2C(=O)N1C1CCCCCC1 (configuration not stated)	8	99	100	-5
CC1=C(C(=O)c2ccccc2)C(c2ccccc2C)NC(=O)N1 (configuration not stated)	11	109	104	1
O=C(Nc1ccc(Cl)c(Cl)c1)N1CCC(O)CC1	-13	112	111	-4
CCNc1nc(NCC)n2c(SCC(=O)N(c3ccccc3)c3ccccc3)nnc2n1	5	105	104	/
N#CC(C#N)=CN1CCC(C(=O)c2ccccc2)CC1	-10	105	107	-10
Cc1cc(NC(=O)CSC2=NN3CCCC(=O)N=C3S2)no1	0	98	102	9
CCN(CC)CCN1C(=O)c2ccccc2NC1c1ccc(Br)cc1 (configuration not stated)	-5	98	99	-2
COc1ccc2c(c1)[C@@]1(C)CCC[C@](C)(CO)C1CC2 (some centres not stated)	-20	105	111	/
COc1cccc(C(=O)N2NC(=O)C=CC2=C(C#N)C#N)c1	0	103	115	/
CCC(C(=O)N1CCCC1)n1nc(C)c2sc3ccccc3c2c1=O (configuration not stated)	7	102	101	8
CCc1ccc(C(C2C(=O)CC(C)(C)CC2=O)C2C(=O)CC(C)(C)CC2=O)s1	-15	105	109	/
O=C(O)COc1ncnc2ccccc12	27*	104	104	10
C/C(=N\NC(=O)c1ccccc1NS(=O)(=O)c1cccs1)c1ccco1	-57	/	/	-20
N#CCSc1nc(N)cc(N)n1	16	100	103	17
COc1ccc(CNc2nc(-c3ccc(OC)cc3)no2)cc1	-35	104	107	-13
CN(C(=O)Nc1ccc(Cl)cc1)C1CC2C=CC1C2 (configuration not stated)	5	103	110	-7
Cc1ccc(C)c(C(=O)N(CCC#N)Cc2cccnc2)c1	/	103	106	-10
CC(C)Cn1c(=O)n(C)c(=O)c2[nH]cnc21	4	100&100	103&102	-22
O=C(Nc1ccc2[nH]ncc2c1)C1CCC1	-23	103	102	-5

Whole records, quoted from the list. Screens in order: Mtb MenB inh	PV pol inh	PV pol inh intensity	MbtI inh
CCc1ccc(C(C2C(=O)CC(C)(C)CC2=O)C2C(=O)CC(C)(C)CC2=O)s1 is listed with -15	105	109	/
O=C(Nc1ccc2[nH]ncc2c1)C1CCC1 is listed with -23	103	102	-5
CN(C(=O)Nc1ccc(Cl)cc1)C1CC2C=CC1C2 (configuration not stated) is listed with 5	103	110	-7
C/C(=N\NC(=O)c1ccccc1NS(=O)(=O)c1cccs1)c1ccco1 is listed with -57	/	/	-20
CC(C)Cn1c(=O)n(C)c(=O)c2[nH]cnc21 is listed with 4	100&100	103&102	-22

Additional compounds:
SMILES	Mtb MenB inh	PV pol inh	PV pol inh intensity	MbtI inh
CC(=O)N[C@H](C(=O)O)C(C)C	-5	99	103	-23
FC(F)Oc1ccc(NC(=S)NNc2ccc(Cl)nn2)cc1	-58	118	106	17
CC1=C/C(=N\Nc2ccc(C(F)(F)F)cn2)CC(C)(C)C1	-54	105	105	-2
O=C(O)c1oc2ccccc2c1COc1ccccc1	/	99	96	-1
Cn1c(Cc2cccs2)nnc1SCC(=O)c1ccc2c(c1)OCO2	-18	103	100	4
CC(CCc1ccco1)NC(=O)c1cccc2c1C(=O)N(C1CCCCC1)C2 (configuration not stated)	-15	100	102	3
CC(=O)OCC1OC(OC(C)=O)C(O)C(OC(C)=O)C1OC(C)=O (configuration not stated)	-17	99	101	-4
O=C(/C=C/c1ccc(F)cc1)N1CCN(C/C=C/c2ccccc2)CC1	2	101	101	-4
COCc1cc(C)nc(N2CCOCC2)c1C#N	-20	103	109	23
O=C(COc1ccc2c3c(c(=O)oc2c1)CCC3)Nc1ccccc1N1CCOCC1	-18	101	106	2
CN(C)CC1CCCCC1OC(=O)c1cc2ccccc2o1 (configuration not stated)	/	103	104	64
O=C(O)c1cc(S(=O)(=O)N(Cc2ccco2)S(=O)(=O)c2ccc3c(c2)OCCO3)c(Cl)cc1Cl	-2	/	/	23
CCOC(=O)c1cc(C)n(CC2CCC(C(=O)Nc3ccccc3)CC2)c1C (configuration not stated)	-6	107	99	0
CC1(C)Cc2c(c(N3CCOCC3)nc3sc4c(Cl)nnnc4c23)CS1	-27	102	94	/
CC(C)NC(=O)c1cn(C2CCCCC2)c(=O)c2c1c1ccccc1n2C	-17	100	106	-67
Cc1ccc(S(=O)(=O)C2CS(=O)(=O)c3ccccc32)cc1 (configuration not stated)	-6	103	105	-8
O=S(=O)(NC12CC3CC(CC(C3)C1)C2)c1ccc2c(c1)OCCO2	-18	105	108	-10
CC1CCc2c(sc3ncnc(SCc4ccco4)c23)C1 (configuration not stated)	-4	97	109	0
CCC1SC(=S)N(CC(=O)O)C1=O (configuration not stated)	-13	101	99	11
COC(=O)c1c(C)[nH]c(C)c1/C=C(\C#N)S(=O)(=O)c1ccc(Cl)cc1	-23	106	112	-13

Retrieved by compound from above (7):
SMILES	Mtb MenB inh	PV pol inh	PV pol inh intensity	MbtI inh
CC1CCc2c(sc3ncnc(SCc4ccco4)c23)C1 (configuration not stated)	-4	97	109	0
COC(=O)c1c(C)[nH]c(C)c1/C=C(\C#N)S(=O)(=O)c1ccc(Cl)cc1	-23	106	112	-13
Cc1ccc(S(=O)(=O)C2CS(=O)(=O)c3ccccc32)cc1 (configuration not stated)	-6	103	105	-8
CC(C)NC(=O)c1cn(C2CCCCC2)c(=O)c2c1c1ccccc1n2C	-17	100	106	-67
CN(C)CC1CCCCC1OC(=O)c1cc2ccccc2o1 (configuration not stated)	/	103	104	64
CCOC(=O)c1cc(C)n(CC2CCC(C(=O)Nc3ccccc3)CC2)c1C (configuration not stated)	-6	107	99	0
O=C(O)c1cc(S(=O)(=O)N(Cc2ccco2)S(=O)(=O)c2ccc3c(c2)OCCO3)c(Cl)cc1Cl	-2	/	/	23

(listing goes on)
SMILES	Mtb MenB inh	PV pol inh	PV pol inh intensity	MbtI inh
CC1(C)Cc2c(c(N3CCOCC3)nc3sc(C#N)c(N)c23)CO1	-9	105	102	/
O=C(OCc1cc(=O)oc2cc(O)ccc12)C1CCN(S(=O)(=O)c2ccccc2)CC1	-10	104	104	-37
CCN1CCC[C@H]1CNC(=O)c1c(OC)ccc(Br)c1OC	-43	99	100	0
O=C(c1ccc(Cl)cc1)N(CCS(=O)(=O)c1ccc(Cl)cc1)Cc1cccs1	1	103	107	-2
CN(C)c1cccc2c1c(NC(=O)Nc1ccccc1)nn2C	-13	101	103	1
N#Cc1cccc(NC(=O)CCNC(=O)c2ccccc2)c1	-7	99	101	3
COc1ccccc1CCNC(=O)CSc1ccc(-c2ccco2)nn1	-19	99	94	13
Nc1ccc2nc(CO)[nH]c2c1	1	100	108	10
Cc1ccc(OC(=O)c2ccccc2)c(C(C)(C)C)c1	-19	104	109	/
COC(=O)c1c(N)n(C)c2nc3ccccc3nc12	-109	103	102	-54
Cc1cc(C)c2c(=O)n(C(=O)c3cccs3)sc2n1	16	121	127	100*
CCOC(=O)N1CCN(C(=O)CN(c2ccc(Cl)c(C(F)(F)F)c2)S(C)(=O)=O)CC1	-14	102	103	-18
O=C(Nc1ccccn1)c1cccc(N2C(=O)CCC2=O)c1	-1	100	101	/
